Screens: PubChem, several laboratories
Mtb bLac sens – beta-lactam sensitization of Mtb H37Rv; M. tuberculosis H37Rv growth with meropenem, percent inhibition; hits of this screen are not shown here; inhibition, % at 25 µM; hit rate 0.27% among 330,000; AID 434955;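 active = about 74% or more and at least 40 points above the plate without the antibiotic, then above 30% in a dose series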;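 note: growth measured after seven days incubation then overnight dye step; 0% = bacteria only wells and 100% = bacteria with antibiotic; twin plates without the antibiotic show which effects depend on it; some results filed as inactive read as strong as hits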
YopH inh – inhibitors of Yersinia enterocolitica YopH tyrosine phosphatase. fluorescence Ex485/Em525. hit rate 0.16% among 140,000. AID 898. inhibition, %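 (about 10 µM by stock and volumes)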;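 active = inhibition of 50% or more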;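 note: controls were vehicle for no effect and minimum signal wells for full effect; inactives centre near -20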
Mtb growth – M. tuberculosis H37Rv growth inhibitors, H37Rv strain (AID 1626). M. tuberculosis H37Rv growth inhibition; higher % means a stronger effect. one-dose inhibition, % at 10 µM; IC50 in µM for titrated hits. hit rate 0.95% among 220,000;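 active = confirmed in a dose series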;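 note: bacteria incubated seven days before Alamar blue readout; 0% = bacteria only wells and 100% = bacteria with antibiotic wells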
Arbovirus inh – antivirals against arbovirus infection. arbovirus infection cell-based antiviral screen. inhibition, % at 10 µM. hit rate 0.37% among 200,000. AID 1251;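 active = inhibition from about 30%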;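 note: bluetongue infection of BSR cells; cell survival read as ATP light after 72 h; 0% = infected wells without compound and 100% = uninfected wells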
RecA intein inh – inhibitors of M. tuberculosis RecA intein splicing. cell-free RecA intein splicing, fluorescence. P9WHJ3. AID 2221. hit rate 0.75% among 290,000. inhibition, %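 (about 9 µM by stock and volumes)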; in the data active = inhibition above about 30%;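 note: 0% = vehicle wells and 100% = reference inhibitor control wells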
Target sequence (P9WHJ3 whole entry, looked up): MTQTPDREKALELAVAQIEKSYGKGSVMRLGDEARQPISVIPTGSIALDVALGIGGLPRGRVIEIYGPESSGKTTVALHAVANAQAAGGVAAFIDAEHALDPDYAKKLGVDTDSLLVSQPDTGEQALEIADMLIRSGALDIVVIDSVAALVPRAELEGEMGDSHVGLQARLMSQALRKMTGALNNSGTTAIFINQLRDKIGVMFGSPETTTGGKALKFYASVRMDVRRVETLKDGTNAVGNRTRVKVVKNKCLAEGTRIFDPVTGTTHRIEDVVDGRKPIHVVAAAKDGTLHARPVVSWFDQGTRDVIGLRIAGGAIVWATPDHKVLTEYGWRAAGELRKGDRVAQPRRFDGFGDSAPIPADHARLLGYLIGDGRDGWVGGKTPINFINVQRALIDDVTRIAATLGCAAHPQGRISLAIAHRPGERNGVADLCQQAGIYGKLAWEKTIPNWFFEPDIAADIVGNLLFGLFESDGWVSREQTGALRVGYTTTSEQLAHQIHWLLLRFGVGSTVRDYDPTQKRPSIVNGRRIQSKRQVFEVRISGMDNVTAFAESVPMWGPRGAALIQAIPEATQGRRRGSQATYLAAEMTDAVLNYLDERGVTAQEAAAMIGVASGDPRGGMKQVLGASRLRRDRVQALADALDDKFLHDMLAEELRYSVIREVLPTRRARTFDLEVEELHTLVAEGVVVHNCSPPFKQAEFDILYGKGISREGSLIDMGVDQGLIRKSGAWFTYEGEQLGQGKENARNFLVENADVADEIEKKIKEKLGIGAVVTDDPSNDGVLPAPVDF
Arbovirus inh repeat – second read-out of Arbovirus inh, no call of its own (marks repeat the call); inhibition, %; measured here: 10K subset replicate screen; many hits read low in the repeat;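 first of two repeat runs on a subset; 0% = infected and 100% = uninfected wells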
Numbers without * were called inactive; x = no result given. An excerpt (hit frequency here may not be typical).

SMILES	Mtb bLac sens	YopH inh	Mtb growth	Arbovirus inh	RecA intein inh	others
COc1ccc(CCC(=O)NNC(=O)Nc2ccc(C(C)=O)cc2)cc1	2	x	x	x	-0.7
CCOc1ccc(N2C(=O)CC(/C=C3/N(C)c4ccccc4C3(C)C)C2=O)cc1 (stereo not given)	6	37	x	3	-2.4
Cc1ccc(Cl)cc1NS(=O)(=O)c1cn(C)nc1C	-1	x	x	x	-5.1
CC1CCCCN1CCCNC(=O)c1c(O)nc2ccccn2c1=O (stereo not given)	-2	x	x	x	0.9
O=C(O)COc1ccc2c(c1)O/C(=C\c1ccco1)C2=O	3	x	x	x	-4.0
Cc1sc2nc(COC(=O)c3cccc(OC(F)F)c3)[nH]c(=O)c2c1C	-4	x	11%	x	-0.8
O=C(CC1CCCC1)NNC(=O)c1ccc(F)cc1	6	x	x	x	-1.5
CCCc1cc(=O)[nH]c(SCCc2ccccc2)n1	-8	x	x	x	0.4
N#C/C(=C\c1ccc([N+](=O)[O-])cc1)C(=O)Nc1ccccc1O	2	-33	1%	-8	8.1
Nc1nn2cc(-c3ccccc3)nc2c2ccccc12	14	x	2%	-5	5.1
O=C(CSc1nnc2ccccn12)Nc1ccc2c(c1)OCCO2	-8	x	-2%	1	1.4
COc1ccc(CNC(=O)C2CCN(S(=O)(=O)c3ccc(SC)cc3)CC2)cc1	0	x	x	x	1.6
Cc1ccc(NC(=O)CCC(=O)N/N=C/C=C/c2ccccc2)cc1	4	-19	4%	-8	0.7
COc1cc(O)c2c(=O)c3c(OC)c(O)ccc3oc2c1	6	-12	0%	-20	-1.9
CCOc1ccccc1-n1c(SCC(=O)N(CC)CC)nnc1-c1ccccn1	-5	-46	-4%	2	-1.6
Cc1c(CCO)c(=O)[nH]n1S(=O)(=O)c1ccccc1	1	x	0%	5	-0.7
COc1ccc(C(=O)N/C(=C\c2ccc3c(c2)OCO3)C(=O)Nc2ccc(C(=O)O)cc2)cc1	4	x	-6%	2	-0.7
CCC(Cc1ccccc1)NC(=O)CCc1ccccc1 (stereo not given)	-1	x	x	x	-0.7
CCOc1cc(N2CCOCC2)c(OCC)cc1NC(=O)CN1CCCC1	7	-8	-3%	-2	-1.6
CCC1(CCCC(=O)c2ccc(F)cc2)C(=O)NC(=S)NC1=O	4	-11	4%	5	-1.5
CC(C)C[C@H](NC(=O)c1nc[nH]c1C(=O)N[C@@H](CC(C)C)C(=O)OCc1ccccc1)C(=O)OCc1ccccc1	-9	x	x	x	-1.3
CCCc1nnc(NC(=O)CCC(=O)NC2CC2)s1	-1	x	x	x	-1.6
Cc1ccc(Oc2ccc(NC(=O)c3ccco3)cc2)cc1	51	-26	1%	-2	x
CCC1(CC)NC(=O)N(CC(=O)OCC(=O)c2ccccc2OC)C1=O	-6	x	x	x	-1.9
Cc1ccc(SCc2cc(=O)[nH]c(N3CCN(Cc4ccccc4)CC3)n2)cc1	-5	-17	-1%	1	0.5

New compounds follow
SMILES	Mtb bLac sens	YopH inh	Mtb growth	Arbovirus inh	RecA intein inh	others
COc1cccc(Nc2nc(-c3sc(NC(=O)CC(C)C)nc3C)cs2)c1	44	-10	-7%	-14	3.9
N#C/C(=C\c1ccc(-c2ccc([N+](=O)[O-])cc2)o1)C(=O)Nc1nc(-c2cccs2)cs1	12	x	19%	x	0.3
CCc1ccc(C2CC(c3ccccc3Cl)Nc3nc(N)nn32)cc1 (stereo not given)	0	-10	5%	21	1.9	Arbovirus inh repeat=-6
COC(=O)[C@@H]1CC[C@H](C)[C@@H](c2ccc(C)cc2)N1C(=O)c1ccc(/C=N/O[C@@H](C)c2cn([C@H](CO)Cc3ccccc3)nn2)cc1	1	-10	x	-31	-2.1
Cn1c(-c2ccco2)n[nH]c1=S	2	x	4%	2	1.4
Cc1cn(C)c(=O)n(C)c1=O	-1	x	15%	0	-0.3
O=C(O)c1ccccc1-c1ccccc1C(=O)NCCCO	4	2	-9%	6	-0.8
CC(C)C[C@H](NC(=O)N1CC(=O)Nc2ccccc21)C(=O)N1CCC(C(=O)O)CC1	-6	x	x	x	-0.7
CCCC(C(=O)Nc1ccc(C)c(S(=O)(=O)N2CCOCC2)c1)c1ccccc1 (stereo not given)	-6	x	x	x	4.6
CC(C)C1Nc2c(O)cc(Cl)c([N+](=O)[O-])c2C2C=CCC21 (stereo not given)	x	x	-2%	23	20
COc1cc(C2C(C(=O)c3ccc(C)o3)=C(O)C(=O)N2c2cc(C)on2)cc(Br)c1O (stereo not given)	17	15	-12%	9	1.9
Cc1scc(C(=O)Nn2cnnc2)c1-c1ccccc1	44	-22	13%	12	-2.4
CCC(C)n1c(O)c(/C=N/Nc2nc3c(c(=O)n(C)c(=O)n3C)n2C)c(=O)[nH]c1=S (stereo not given)	8	x	3%	x	-5.7
Cc1ccc(C(=O)C(C)OC(=O)C2=COCCO2)cc1C (stereo not given)	97	-32	78%	4	0.1
O=C(CCn1c(=O)[nH]c2ccsc2c1=O)N1CCN(Cc2ccc3c(c2)OCO3)CC1	0	-136	x	0	x
COc1cccc(OCC(=O)N2CCC3(CC2)CC(=O)c2ccccc2O3)c1	-7	x	x	x	0.3
O=C(CCCSc1nc2ccccc2s1)NCc1ccco1	-1	-27	11%	-3	x	Arbovirus inh repeat=1
CC[C@H](C)NC(=O)c1ccc(Cn2c(=S)[nH]c3c([nH]c4ccc(OC)cc43)c2=O)cc1	-1	-18	-7%	-27	-1.6
Cc1ccc(-c2csc(NC(=O)CSc3nc(C)cs3)n2)cc1	31	2	-1%	-6	2.7
CCOC(=O)c1c(NC(=S)Nc2ccccc2)sc(C)c1C	-11	3	-14%	4	-1.2
COc1ccc(C(C(=O)NC(C)(C)C)N(Cc2ccco2)C(=O)CCC(=O)Nc2cc(C)on2)cc1 (stereo not given)	-7	-27	-1%	4	0.9
CSc1ccccc1C(=O)C1CCCN(Cc2c(C)n(C)n(-c3ccccc3)c2=O)C1 (stereo not given)	1	x	7%	-22	-1.2
CC(C(=O)NCCN1C(=O)S/C(=C\c2cccnc2)C1=O)N1C(=O)c2ccccc2C1=O (stereo not given)	2	-30	-10%	7	8.3
OC(CC#CCN1CCCCC1)(c1ccccc1)c1ccccc1	0	x	x	x	-1.1
O=C(Nc1ccc2[nH]c3c(c2c1)CCCC3)c1ccco1	12	17	-2%	-23	1.4

(listing goes on)
SMILES	Mtb bLac sens	YopH inh	Mtb growth	Arbovirus inh	RecA intein inh	others
Cn1cc(C(=O)c2ccccc2)c2ccccc21	-3	-50	1%	-5	-5.2	Arbovirus inh repeat=-4
Cc1ccccc1NC(=O)Cn1nc(C(=O)O)c2ccccc2c1=O	4	x	x	x	-0.7
C=CCn1c(CNC(=O)c2ccco2)nnc1SCC(=O)c1ccccc1	-1	x	0%	1	0.6
Cc1ccc(-c2nc(=S)c3c(n2Cc2cccnc2)CC(C)(C)OC3)cc1	-4	x	-7%	x	-1.3
Cn1cc(-c2nnnn2-c2ccccc2)c(=O)c2ccccc21	0	-44	-9%	5	-1.6
O=C(COC(=O)CNC(=O)c1ccccc1)Nc1ccccc1Cl	0	x	-6%	17	-1.2
C=CCn1c(SCC(=O)OCC)nc(C(F)(F)F)cc1=O	2	x	-1%	7	1.0
CCc1cc2cc(C)cc(C)c2nc1SCC(=O)Nc1cc(C)on1	0	x	1%	-3	-5.7
Cc1c(NC(=O)Nc2ccc(C(C)C)cc2)c(=O)n(-c2ccccc2)n1C	5	x	x	x	2.9
Cc1sc2ncnc(SCC(=O)N3CCCC3)c2c1C	41	-1	-2%	-4	-0.4
CCOC(=O)N1CCc2c(sc(NC(C)=O)c2C(N)=O)C1	-3	-12	8%	6	6.9	Arbovirus inh repeat=-1
COc1ccc(/C=C/C(=O)N2CCN(c3ccccn3)CC2)c2ccccc12	63	x	6%	-15	1.0
Cn1nc(C(=O)NC2CCCCC2)c2ccccc2c1=O	4	-43	-11%	4	0.0
O=C(NCc1ccccn1)c1cccc([N+](=O)[O-])c1	-8	1	-6%	-3	2.6
Oc1ccc(CN2CCc3ccccc3C2)c2cccnc12	94	-17	2%	-29	-2.3
CCc1ccc2[nH]c(=O)c(CN(CCCN3CCOCC3)C(=O)Nc3cccc(Cl)c3)cc2c1	99	-10	11%	-19	3.8
Cc1cc(N2C(=O)C(O)=C(C(=O)c3ccco3)C2c2ccc(O)cc2)no1 (stereo not given)	-10	-1	x	4	-4.5
COCCN1C(=O)Cc2c1nc(N)c1c(N)nc(N3CCN(c4ccc(F)cc4)CC3)c(C#N)c21	3	x	4%	4	-2.3
O=C1NC(Cc2c[nH]c3ccccc23)C(=O)N1Cc1ccccc1 (stereo not given)	0	x	x	x	0.0
COc1ccc(C)cc1S(=O)(=O)n1ccnc1C	-4	x	x	-1	0.9
Cc1ccc2cc(CN(C)C(=O)C3CCCO3)c(=O)[nH]c2c1 (stereo not given)	3	-44	-8%	-3	2.4
O=C(Nc1ccc2nc(-c3ccccc3)oc2c1)c1ccco1	-4	-23	-2%	-1	-2.1
Cc1ccc(NN=Nc2nc3c([nH]2)c(=O)n(C)c(=O)n3C)cc1	2	-16	4%	3	-8.4
Cn1c(C23CC4CC(CC(C4)C2)C3)n[nH]c1=S	-4	-16	-6%	-4	1.8
O=C(c1ccc(CNS(=O)(=O)c2ccccc2)cc1)N1CCN(c2ccccn2)CC1	-4	-43	x	-32	x

The final 3 records of the section before open the next one.
SMILES	Mtb bLac sens	YopH inh	Mtb growth	Arbovirus inh	RecA intein inh	others
Cc1ccc(NN=Nc2nc3c([nH]2)c(=O)n(C)c(=O)n3C)cc1	2	-16	4%	3	-8.4
Cn1c(C23CC4CC(CC(C4)C2)C3)n[nH]c1=S	-4	-16	-6%	-4	1.8
O=C(c1ccc(CNS(=O)(=O)c2ccccc2)cc1)N1CCN(c2ccccn2)CC1	-4	-43	x	-32	x
Cc1ccccc1S(=O)(=O)Cc1ccc(C(=O)NC2CCCCCC2)o1	1	x	x	x	2.4
O=C(NNC(=S)NCc1ccccc1)c1ccc(Br)cc1	-1	x	x	x	2.2
O=C(O)c1ccc(Cl)c(NC(=S)NC(=O)c2cccc(COc3ccccc3)c2)c1	8	x	x	x	1.9
COC(=O)CC1C(=O)NCCN1C(=O)c1sc2ccccc2c1Cl (stereo not given)	-10	x	-9%	x	-1.4
Cc1ccc(S(=O)(=O)N2CCN(C3CCN(Cc4ccccc4)CC3)CC2)cc1	-6	-8	12%	-10	x
COc1ccc(C(=O)OCC(=O)NC(=O)NC(C)C)cc1OC	-1	x	2%	-1	0.4
CCn1c(-c2csc(-c3ccccc3)n2)n[nH]c1=S	15	-10	2%	4	-1.5
COC(=O)N(NC(=O)C(O)(c1ccccc1)c1ccccc1)c1ccccc1	7	18	-2%	15	0.0
COC(=O)N/N=C/c1c(C)nn(-c2cccc(Cl)c2)c1Cl	-10	-24	5%	-11	1.4
O=C1CCCN2N=C(SCC(=O)Nc3ccc(OC(F)(F)F)cc3)SC2=N1	-11	x	x	x	-5.2
Cc1ccc(Cl)cc1N1CCN(C(=O)c2ccc(NS(=O)(=O)c3c(C)noc3C)cc2)CC1	14	2	x	7	10
O=C(CN1CCCc2ccccc21)NCCc1ccc(Cl)cc1	-6	x	-11%	4	1.4
CSc1ccc(/C=C2\CCn3c2nc2cc(C(=O)O)ccc2c3=O)cc1	2	x	x	x	-24

By substructure, the entries above with an aryl methoxy group (13)
SMILES	Mtb bLac sens	YopH inh	Mtb growth	Arbovirus inh	RecA intein inh	others
COc1ccc(CCC(=O)NNC(=O)Nc2ccc(C(C)=O)cc2)cc1	2	x	x	x	-0.7
COc1ccc(CNC(=O)C2CCN(S(=O)(=O)c3ccc(SC)cc3)CC2)cc1	0	x	x	x	1.6
COc1cc(O)c2c(=O)c3c(OC)c(O)ccc3oc2c1	6	-12	0%	-20	-1.9
COc1ccc(C(=O)N/C(=C\c2ccc3c(c2)OCO3)C(=O)Nc2ccc(C(=O)O)cc2)cc1	4	x	-6%	2	-0.7
CCC1(CC)NC(=O)N(CC(=O)OCC(=O)c2ccccc2OC)C1=O	-6	x	x	x	-1.9
COc1cccc(Nc2nc(-c3sc(NC(=O)CC(C)C)nc3C)cs2)c1	44	-10	-7%	-14	3.9
COc1cc(C2C(C(=O)c3ccc(C)o3)=C(O)C(=O)N2c2cc(C)on2)cc(Br)c1O (stereo not given)	17	15	-12%	9	1.9
COc1cccc(OCC(=O)N2CCC3(CC2)CC(=O)c2ccccc2O3)c1	-7	x	x	x	0.3
CC[C@H](C)NC(=O)c1ccc(Cn2c(=S)[nH]c3c([nH]c4ccc(OC)cc43)c2=O)cc1	-1	-18	-7%	-27	-1.6
COc1ccc(C(C(=O)NC(C)(C)C)N(Cc2ccco2)C(=O)CCC(=O)Nc2cc(C)on2)cc1 (stereo not given)	-7	-27	-1%	4	0.9
COc1ccc(/C=C/C(=O)N2CCN(c3ccccn3)CC2)c2ccccc12	63	x	6%	-15	1.0
COc1ccc(C)cc1S(=O)(=O)n1ccnc1C	-4	x	x	-1	0.9
COc1ccc(C(=O)OCC(=O)NC(=O)NC(C)C)cc1OC	-1	x	2%	-1	0.4
